# HNF4A DNA FP = change in binding of human HNF4A to DNA, primary screen, biochemical, fluorescence polarization, FITC-DNA. Hepatocyte nuclear factor 4-alpha (Homo sapiens), P41235. 360,000 tested, 0.3% active. 1 h. AID 1224865, 2016. activity change, % at 10 µM; in the data active = activity change above about 30%, passing the limit was not always enough;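 note: controls were the assay level and a saturating level of protein; the project sought stronger binding though the title names inhibitors; some compounds called inactive have numbers as strong as hits; positive values seem to mean higher polarization but the record does not say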
# Vif A3G = inhibitors of Vif binding to APOBEC3G peptide, primary screen, biochemical, TR-FRET, GST-Vif 1-94, biotin-A3G peptide, dose response retest (AID 1117319); inhibition, %; hits with a dose series show IC50 in µM; Virion infectivity factor (Human immunodeficiency virus type 1 group M subtype B (isolate …; 260,000 tested, 0.57% active; TR-FRET GST-Vif / biotin-A3G peptide binding; higher % means a stronger effect; test concentration not given here; strong numbers were not always called active;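 active = above the screen mean plus three standard deviations and confirmed in dose response; inconclusive = results disagree or hit not tested in dose response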;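 note: Vif residues 1-94 fused to GST binding biotinylated APOBEC3G peptide 110-148; 0% = full assay without inhibitor and 100% = GST in place of GST-Vif; retest series ran down from 100 µM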
# ALR H2O2 inh = inhibitors of human ALR sulfhydryl oxidase, primary screen, biochemical, H2O2 detection, HRP-luminol luminescence, single point. FAD-linked sulfhydryl oxidase ALR (Homo sapiens), P55789. purified ALR, DTT oxidation. inhibition, % (test concentration not listed). 290,000 tested, 3.8% active;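 active = mean and each replicate at 75% or more; inconclusive = only one of the two met; inactive = neither met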;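 note: stock transfer was 7.5 nL into about 7.5 µL; 0% = neutral wells and 100% = wells with inactivated enzyme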
# Beta2AR agonist = beta2AR agonists driving receptor internalization, primary screen, cell-based, FAP fluorogen, flow cytometry | Beta-2 adrenergic receptor (Homo sapiens), P07550 | Am2.2-beta2AR cells; reference of the scale not given here | response, % (concentration not given with the values) | 340,000 tested, 0.43% active;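 active = response above a set limit, near 3 SD of response in nonfluorescent compounds, cut at about 42% in these data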;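 note: stock transfer was 100 nL into about 11 µL; a reference agonist was the positive control; negative values mostly stem from fluorescent compounds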
# RanGTP-Imp inh = inhibitors of RanGTP-importin-beta interaction, primary screen, biochemical, FRET, CFP-Ran, YFP-importin-beta, homogeneous; Ran GTPase (GTP-bound) - importin-beta complex; cell-free CFP-Ran/YFP-importin-beta FRET ratio; inhibition, % (no concentration beside the values); 300,000 tested, 1.1% active; AID 2216, 2009;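 active = most replicates above 15%; inconclusive = exactly half above 15%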;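 note: 0% = DMSO wells and 100% = Ran loaded with GDP instead of GTP; wells of about 40 µL received 100 nL stock; the first replicate is given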
# Calb FLC = C. albicans growth inhibition with fluconazole, primary screen, CaCi-2 strain, Alamar Blue fluorescence | 300,000 tested, 0.57% active | C. albicans CaCi-2 (fluconazole-resistant clinical isolate) + fluconazole, 48 h | growth inhibition, % (concentration not given with the values);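 active = most replicates above 75%; inconclusive = exactly half above 75%; inactive = most below 75%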;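 note: all wells also contain fluconazole at 8 µg/ml as a sub-toxic cotreatment; 0% = median of DMSO wells and 100% = median of geldanamycin control wells; wells of about 8 µL received 7.5 nL stock; the first replicate is given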
# LANA-H2A inh = blockers of LANA interaction with H2A/H2B – biochemical, FP readout, HTS, primary screen; Protein LANA1 (Human herpesvirus 8 type P (isolate GK18)), Q9QR71; cell-free LANA-H2A/H2B peptide, fluorescence polarization; inhibition, % (test concentration not listed); 320,000 tested, 0.6% active; AID 2629, 2010; in the data active = inhibition mostly above about 10%, no sharp cut-off; inactive = mostly below about 6.7%;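 note: stock transfer was 7.5 nL into about 10 µL; 0% = median of vehicle wells and 100% = median of positive control wells; one replicate is shown; the record names a cut of 25% in any replicate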
# Target sequence (Q9QR71 whole entry, looked up): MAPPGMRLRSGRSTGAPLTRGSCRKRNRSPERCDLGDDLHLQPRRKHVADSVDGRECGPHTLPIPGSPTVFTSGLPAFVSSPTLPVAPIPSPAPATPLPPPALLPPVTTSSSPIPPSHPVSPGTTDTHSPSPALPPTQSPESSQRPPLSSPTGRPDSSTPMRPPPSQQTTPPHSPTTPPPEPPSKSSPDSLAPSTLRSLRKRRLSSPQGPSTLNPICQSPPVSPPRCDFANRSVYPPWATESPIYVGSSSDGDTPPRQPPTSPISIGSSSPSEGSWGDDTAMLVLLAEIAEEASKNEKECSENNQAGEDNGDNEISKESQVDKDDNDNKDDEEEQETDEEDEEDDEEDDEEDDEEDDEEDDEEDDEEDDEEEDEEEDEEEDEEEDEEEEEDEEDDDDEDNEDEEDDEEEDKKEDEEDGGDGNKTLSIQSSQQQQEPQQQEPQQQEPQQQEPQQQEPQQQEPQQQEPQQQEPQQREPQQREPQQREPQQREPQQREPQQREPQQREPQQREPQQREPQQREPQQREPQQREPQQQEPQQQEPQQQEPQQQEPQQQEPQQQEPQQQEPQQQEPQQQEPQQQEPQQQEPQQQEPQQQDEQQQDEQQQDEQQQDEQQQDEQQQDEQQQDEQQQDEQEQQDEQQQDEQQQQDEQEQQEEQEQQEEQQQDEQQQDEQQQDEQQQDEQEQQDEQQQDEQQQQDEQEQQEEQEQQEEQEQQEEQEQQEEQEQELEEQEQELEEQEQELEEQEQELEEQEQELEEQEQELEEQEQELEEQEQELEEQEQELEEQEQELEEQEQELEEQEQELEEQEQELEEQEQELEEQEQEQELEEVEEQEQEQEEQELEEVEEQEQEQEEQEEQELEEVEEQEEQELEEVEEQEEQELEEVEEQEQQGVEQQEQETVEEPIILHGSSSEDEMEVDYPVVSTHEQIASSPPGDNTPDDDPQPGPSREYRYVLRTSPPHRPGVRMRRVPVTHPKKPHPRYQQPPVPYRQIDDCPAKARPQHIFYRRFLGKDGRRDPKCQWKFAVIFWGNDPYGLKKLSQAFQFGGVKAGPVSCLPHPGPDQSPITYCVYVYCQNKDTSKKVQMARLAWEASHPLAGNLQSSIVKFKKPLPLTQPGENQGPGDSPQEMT
# Active calls of the source: *; ? = inconclusive; . = not tested or not shown.
# Screens in order – HNF4A DNA FP	Vif A3G	ALR H2O2 inh	Beta2AR agonist	RanGTP-Imp inh	Calb FLC	LANA-H2A inh
Cc1ccc(C)c(C(=O)CSc2nc(C)cc(=O)[nH]2)c1
    0.9	.	25	-4	-2.4	-4	-0.8
CCN(CC)S(=O)(=O)c1ccc(Cl)c(C(=O)NC)c1
    -1.7	19%	-2	5	1.9	1	-1.7
CCOC(=O)N1CCC(n2c(SCC(=O)c3ccccc3)nc3ccsc3c2=O)CC1
    -1.4	-8%	-1	13	-0.1	-14	-3.6
CCOc1ccccc1OCC(=O)Nc1cc(C)on1
    1.1	.	.	-2	.	.	3.0
CN1CCN(S(=O)(=O)c2ccc(Nc3cccc(Cl)c3)c([N+](=O)[O-])c2)CC1
    0.2	.	.	-5	.	.	0.2
CCc1nnc(NS(=O)(=O)c2ccc(NC(=O)CCC(=O)OC)cc2)s1
    1.9	.	-5	7	1.9	14	-3.8
Cc1c(Br)c([N+](=O)[O-])nn1C(C)C(=O)Nc1ccc2c(c1)OCO2 (stereo not given)
    2.0	14%	-18	-3	?	-6	0.9
CC1=C(C(=O)Nc2ccc(C(=O)NC(C)c3ccccc3)cc2)SCCO1 (stereo not given)
    -0.6	.	0	1	6.2	0	2.6
O=C(Cc1ccccc1)c1c[nH]c(C(=O)NCCCN2CCOCC2)c1
    3.2	8%	-24	-9	0.2	-5	-4.3
Cc1ccc(C(=O)NCCN2CCCC2)cc1
    -2.5	-5%	-4	-2	0.0	-8	-3.8
Cc1cccc(C(=O)O/N=C(/c2ccccc2)c2ccncc2)c1
    7.2	-11%	.	2	1.3	-12	-2.1
O=C(c1cccc(S(=O)(=O)N2CCOCC2)c1)N1CCN(S(=O)(=O)c2cccc([N+](=O)[O-])c2)CC1
    3.2	-4%	.	-11	.	.	.
CC1CC(C)CN(C(=O)Cn2c(=O)n(CCCC(=O)NCc3ccco3)c(=O)c3sccc32)C1 (stereo not given)
    1.1	.	.	-1	0.3	-5	-5.0
Cc1ccc(N(C)C2=NC(=O)CS2)cc1Cl
    2.5	-3%	-3	2	-1.2	-1	1.3
CCOCC(=O)Nc1cc(C(=O)NCCc2ccccc2)ccc1Cl
    -0.2	27%	-4	5	0.8	44	-3.1
COc1ccc(NC(=O)C(C)N=C2NS(=O)(=O)c3ccccc32)cc1S(N)(=O)=O (stereo not given)
    2.3	.	-1	5	.	.	-3.1
O=C1[C@H]2[C@@H](c3ccc(F)cc3)N3C(=O)N(c4ccc(C(F)(F)F)cc4)C(=O)[C@@]3(Cc3ccccc3)[C@H]2C(=O)N1C1CCCCC1
    1.0	.	2	5	-1.5	13	-4.6
COC(=O)Nc1nc(-c2ccccc2)c(C(=O)c2ccc(Cl)cc2)s1
    -1.7	-13%	-2	0	-1.5	4	0.7
CN(C)CC(O)CN1C(=O)NC(C)(C)C1=O (stereo not given)
    2.7	4%	3	-4	-2.8	-9	-3.8
O=c1c([N+](=O)[O-])c(N2CCCCC2)c2ccccc2n1-c1ccccc1
    3.1	2%	-6	3	0.6	-7	-1.7
COc1ccc(-n2c(SCC(=O)N3CCCC3)nc3ccccc3c2=O)cc1
    .	-6%	0	.	0.9	-5	-4.6
COC(=O)[C@@]1(Cc2ccc(F)cc2)[C@@H]2[C@@H](CC(=O)[C@H]2CC(=O)C(=O)N(C)C)CN1C(=O)c1ccccc1
    1.0	.	-13	-2	.	.	4.4
COc1cc(OC)c(C(=O)OCC(=O)NC2CCCC2)cc1OC
    1.0	-1%	0	0	1.1	0	0.5
C/C(N)=C(/C#N)C(=O)COC(=O)c1ccccc1Oc1ccccc1
    -1.5	-2%	.	-3	-1.6	26	-0.1
CC(=O)/C=C\c1cn(-c2ncc(C(F)(F)F)cc2Cl)c2ccccc12
    -0.9	18%	26	-8	-3.4	-29	15
O=C(c1ccncc1)N1CCN(C(=O)c2cccc3ccccc23)CC1
    2.0	-4%	-12	2	-1.7	-6	-3.3
CCOc1cc(NC(=S)NCCCN2CCOCC2)c(OCC)cc1NC(=O)c1ccccc1
    1.3	10%	-58	-12	6.6	23	2.3
Cc1cc(/C=C2\C(=N)N3C(SCc4ccccc4)=NSC3=NC2=O)c(C)n1Cc1ccccc1
    17	-6%	-3	7	-1.8	10	0.6
O=C(Cn1c(C(F)(F)F)nc2ccccc21)Nc1ccccc1C(=O)O
    5.4	4%	5	4	0.4	13	-0.5
COc1ccc2c(Cl)c(C(=O)NCCc3ccc(S(N)(=O)=O)cc3)sc2c1
    3.1	.	.	-6	-1.6	9	2.3

# Full records as entered above. Values in the order: HNF4A DNA FP	Vif A3G	ALR H2O2 inh	Beta2AR agonist	RanGTP-Imp inh	Calb FLC	LANA-H2A inh
# CN(C)CC(O)CN1C(=O)NC(C)(C)C1=O (stereo not given) is listed with 2.7	4%	3	-4	-2.8	-9	-3.8
# O=C(c1cccc(S(=O)(=O)N2CCOCC2)c1)N1CCN(S(=O)(=O)c2cccc([N+](=O)[O-])c2)CC1 is listed with 3.2	-4%	.	-11	.	.	.
# COc1cc(OC)c(C(=O)OCC(=O)NC2CCCC2)cc1OC is listed with 1.0	-1%	0	0	1.1	0	0.5
# COc1ccc(NC(=O)C(C)N=C2NS(=O)(=O)c3ccccc32)cc1S(N)(=O)=O (stereo not given) is listed with 2.3	.	-1	5	.	.	-3.1

# (more compounds)
# Screens in order – HNF4A DNA FP	Vif A3G	ALR H2O2 inh	Beta2AR agonist	RanGTP-Imp inh	Calb FLC	LANA-H2A inh
C=C(C)CNC(=S)N/N=C/c1c(F)cccc1F
    1.3	23%	3	-3	-1.8	-7	-3.3
CCOC(=O)c1c(CN2CCC(C)CC2)n(C)c2cc(Br)c(OC)cc12
    -1.6	-38%	.	11	-1.1	-2	1.1
Cc1cc(S(=O)(=O)NCc2cccnc2)ccc1F
    2.6	?	2	11	-0.7	6	-2.0
COc1ccc(C(=O)Cn2c(Cl)nc3c2c(=O)n(C)c(=O)n3C)cc1
    6.9	-7%	-2	-4	-1.5	12	-3.6
CCOC(=O)COc1ccc(/C=C2\NC(=S)N(CC)C2=O)cc1
    3.2	.	.	66*	3.7	-2	.
Cc1ccc(S(=O)(=O)N/N=C/c2cc([N+](=O)[O-])ccc2O)cc1[N+](=O)[O-]
    -3.3	15%	28	-7	-0.8	-3	-3.7
COC(=O)CSc1nc2ncccc2[nH]1
    -4.1	-1%	-7	-3	2.3	-13	1.4
CCOC(=O)N1CCN(C(=O)c2ccc3nc4ccsc4c(=O)n3c2)CC1
    3.2	2%	-25	-4	-2.9	2	6.5
Cc1ccccc1NC(=O)C1CCCN(S(=O)(=O)c2ccc3c(c2)C(C)(C)C(=O)N3C)C1 (stereo not given)
    1.4	.	-6	-1	2.5	9	-0.2
Cc1onc(-c2ccccc2Cl)c1C(=O)Oc1cccc2cccnc12
    2.6	-1%	-6	-3	-2.1	-12	-3.8
CCOC(=O)N1CCN(c2c(NCCCN(C)c3ccccc3)c(=O)c2=O)CC1
    1.3	1%	99*	-6	-1.6	26	2.7
CC(C)COC(=O)Nc1nnc(SCCOc2ccccc2)s1
    -0.6	-7%	-7	0	2.4	-3	14
CCN(CC)c1ccc(S(=O)(=O)N2CCOCC2)cc1NC(=O)CN1C(=O)NC2(CCC(C)CC2)C1=O (stereo not given)
    2.4	-4%	-18	8	1.3	-11	-0.7
Cc1nc2nc(C)n(CCN3CCOCC3)c(=O)c2c(-c2cccc([N+](=O)[O-])c2)c1C(=O)CCCCCCCCCCN1CCC(c2ccccc2)(c2ccccc2)CC1
    -54	-2%	.	33	.	.	.
CCC[n+]1c(C)sc2c3c(ccc21)CCCC3
    6.7	?	-1	7	.	-28	-0.3
Cc1c2cnn(-c3ccccc3)c(=O)c2c(C)n1CCCC(=O)N1CCN(C)CC1
    -1.4	?	-4	5	-0.3	1	0.7
Cc1ccccc1-c1nn(-c2ccc(F)cc2F)cc1CNCCCO
    -7.4	15%	-3	-2	5.7	-7	1.2
COc1ccc(C(=O)Nc2nc3ccccc3c(=O)[nH]2)cc1
    2.6	1%	-3	10	1.0	-3	40*
C[C@@H]1O[C@@H](OCCC(=O)O)[C@H](O)C[C@H]1O
    -1.2	.	-2	-5	.	.	-1.7
Cc1ccc(NC(=O)CCC(=O)NNC(=S)Nc2ccc(F)cc2)c(C)c1
    3.0	.	.	-3	-6.2	-4	-3.4
Cn1c(=O)[nH]c(=O)c2c1nc(N(CCO)Cc1ccccc1)n2CCCc1ccccc1
    -1.3	?	.	1	1.9	-1	-1.4
O=S(=O)(NC1=NCCCCC1)c1ccc(Cl)cc1Cl
    0.1	2%	.	-1	.	.	0.1
CC(=O)c1cccc(NC(=S)NC(=O)C(C)C)c1
    -0.1	10%	0	-2	-4.6	6	-3.5
CCOc1ccc2nc(NC(=O)Cn3[nH]c(=O)c4ccccc4c3=O)sc2c1
    33	-6%	.	4	1.1	5	1.6
O=[N+]([O-])c1cc2c(cc1/C=N/n1cnnc1)OCO2
    0.6	17%	-42	8	1.9	18	3.5
COc1ccccc1NC(=O)C1=C(C)Nc2nnnn2C1c1ccccc1OC (stereo not given)
    3.8	0%	.	2	1.4	3	-0.4
CC/C(=N/NC(=O)c1ccc(Br)o1)c1ccc(Cl)cc1
    -2.7	7%	-1	-1	-4.7	18	6.2
Cc1ccc(-c2ccc(CCC(=O)O)n2-c2ccc(O)cc2)cc1
    -1.5	25%	87*	-6	-17	7	2.9
COCCNC(=O)C(=O)NCC1OCCN1C(=O)c1ccc(Cl)cc1 (stereo not given)
    -0.2	.	.	7	-3.9	4	-2.1
CC(=O)Nc1ccc(S(=O)(=O)Nc2cccc(N(C)S(C)(=O)=O)c2)cc1
    -0.1	-3%	2	-2	-1.8	4	-4.6
CCSc1nnc(-c2c[nH]c3ccccc23)o1
    0.3	.	-1	0	-1.1	.	-0.5
O=C(CSc1nc(O)c(C(c2ccccc2)c2ccccc2)c(=O)[nH]1)N1CCOCC1
    1.9	23%	91*	7	6.2	-17	0.0
CCN(CC)CCCN1C(=O)c2oc3ccccc3c(=O)c2C1c1cc(OC)ccc1OC (stereo not given)
    -0.4	5%	0	-6	0.1	-1	-1.4
CCCN(CCC)CCNC(=O)CCC(=O)Nc1ccc2nc(N3CCOCC3)cc(C)c2c1
    -2.6	-6%	8	-5	0.2	-4	0.1
O=C(O)CCCNc1cc(N2CCC3(CC2)OCCO3)c2noc3c2c1C(=O)c1ccccc1-3
    .	0.97µM*	65	.	.	.	38*
Cc1ccc(-c2nnc(CSc3nnc(C)s3)o2)cc1
    2.0	1%	-1	3	1.1	2	0.2
COc1ccc(Cl)cc1N(CC(=O)NCCSCc1ccccc1)S(C)(=O)=O
    -2.1	.	-4	-9	2.2	-2	1.4
COc1cc(C(=O)NC2=C(C#N)CCC2)cc(OC)c1OC
    0.7	4%	-6	-3	4.0	2	-3.6
Cc1ccc(S(=O)(=O)N2CCC[C@H]2C(=O)Nc2ccccc2C)cc1
    -0.5	-3%	-1	7	.	.	-0.8
O=C(c1ccc(COc2ccccc2Br)cc1)N1CCCCCC1
    -1.4	5%	2	6	2.7	8	4.5
